# Compound activity deposited in PubChem BioAssay by several laboratories.
# Ecoli growth: blocks Escherichia coli growth; OD600, 23 h; active compounds read low; OD600 absorbance (concentration not given with the values); hit rate 0.21% among 330,000; AID 1053175;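 active = OD600 absorbance below the run mean of sample wells minus 3.6 SD, in any replicate, cut at about 0.56 in these data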;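 note: stock transfer was 300 nL into about 60 µL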
# ALR inh: inhibitors of human sulfhydryl oxidase ALR; AID 485317; P55789; purified ALR, DTT oxidation, H2O2 HRP-luminol luminescence; hit rate 3.8% among 290,000; inhibition, % (test concentration not listed);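 active = mean and each replicate at 75% or more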;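 note: stock transfer was 7.5 nL into about 7.5 µL; 0% = neutral wells and 100% = wells with inactivated enzyme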
# FGF22 binding: FGF22 (human) thermal shift binding; Q9HCT0; recombinant FGF22 thermal shift, SYPRO orange fluorescence; percent of sucrose octasulfate shift, DMSO zero; calls only at 9.99 µM; hit rate 1.5% among 340,000; AID 651658;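 active = melting point raised past a set limit in the mean and every replicate; three in four hits are not shown here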
# Target sequence (Q9HCT0 whole entry, looked up): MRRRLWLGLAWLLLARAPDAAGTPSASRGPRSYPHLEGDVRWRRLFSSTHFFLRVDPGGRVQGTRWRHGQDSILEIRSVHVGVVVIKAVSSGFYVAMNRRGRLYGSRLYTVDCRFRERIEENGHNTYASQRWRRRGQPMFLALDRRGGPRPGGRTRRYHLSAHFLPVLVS
# Ecoli rRNA inh: selective bacterial rRNA inhibition in E. coli. E. coli WT GFP vs humanized-ribosome RFP mutants, fluorescence, 24 h; active compounds read low; DMSO median 0, no signal -100. GFP signal change (wild-type ribosome), % (no concentration beside the values). hit rate 1.6% among 350,000;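 active = significant combined selectivity score with lowered wild-type GFP, culture density cut under 30%, mutant RFP and density less affected; inactive = any of these conditions unmet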; note: one replicate is shown; some compounds called inactive have numbers as strong as hits
# UCH37 inh: inhibitors of human deubiquitinating enzyme UCH37. Q9Y5K5. purified proteasome/UCH37, Ub-AMC cleavage fluorescence. inhibition, % (concentration not given with the values). hit rate 0.33% among 330,000;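 active = mean of two replicates above 20%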;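 note: 0% = compound-free wells with enzyme and 100% = wells lacking proteasome; stock transfer was 100 nL into about 20 µL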
# Target sequence (Q9Y5K5 whole entry, looked up): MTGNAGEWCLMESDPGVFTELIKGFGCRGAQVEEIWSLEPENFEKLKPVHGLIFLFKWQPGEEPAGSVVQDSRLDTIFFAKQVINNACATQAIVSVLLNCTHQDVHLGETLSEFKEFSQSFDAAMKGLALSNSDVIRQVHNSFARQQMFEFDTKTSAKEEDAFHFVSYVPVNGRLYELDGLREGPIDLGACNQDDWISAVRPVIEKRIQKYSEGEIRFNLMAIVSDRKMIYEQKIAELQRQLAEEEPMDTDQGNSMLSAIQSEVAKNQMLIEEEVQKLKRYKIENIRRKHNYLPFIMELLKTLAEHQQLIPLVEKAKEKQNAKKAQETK
#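 Material: human UCH37 enzyme supplied as purified proteasome complex. Measure: % inhibition of Ub-AMC cleavage fluorescence. Medium: pH 7.4 Tris-HCl (50 mM) with ovalbumin, ATP-MgCl2, DTT. Times: 30 min preincubation with enzyme, 25 min cleavage at room temperature. Detection: AMC fluorescence intensity at 355/460 nm.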
# HNF4A DNA FP: change in binding of human HNF4 alpha to DNA | HNF4a-FITC DNA binding, fluorescence polarization, 1 h | AID 1224865 | hit rate 0.3% among 360,000 | activity change, % at 10 µM; in the data active = activity change above about 30%, passing the limit was not always enough;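 note: controls were the assay level and a saturating level of protein; the project sought stronger binding though the title names inhibitors; some compounds called inactive have numbers as strong as hits; positive values seem to mean higher polarization but the record does not say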
# Target sequence (P41235 whole entry, looked up): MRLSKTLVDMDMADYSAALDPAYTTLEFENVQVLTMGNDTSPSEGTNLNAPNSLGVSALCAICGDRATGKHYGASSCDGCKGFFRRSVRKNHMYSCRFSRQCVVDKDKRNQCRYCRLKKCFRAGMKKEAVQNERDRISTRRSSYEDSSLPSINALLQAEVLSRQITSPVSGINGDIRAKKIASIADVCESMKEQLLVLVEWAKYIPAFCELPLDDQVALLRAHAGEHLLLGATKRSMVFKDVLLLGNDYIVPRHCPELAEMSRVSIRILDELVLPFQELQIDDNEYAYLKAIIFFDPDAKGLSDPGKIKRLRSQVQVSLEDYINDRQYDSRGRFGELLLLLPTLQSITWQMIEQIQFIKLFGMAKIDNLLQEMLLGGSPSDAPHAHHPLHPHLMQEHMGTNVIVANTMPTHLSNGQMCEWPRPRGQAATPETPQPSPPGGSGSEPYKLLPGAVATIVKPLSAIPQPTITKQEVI
# B2AR ag: agonists of human beta-2 adrenergic receptor inducing internalization | P07550 | Am2.2-beta2AR cells, FAP receptor internalization, flow cytometry; reference of the scale not given here | response, % (test concentration not listed) | hit rate 0.43% among 340,000 | AID 504454;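 active = response above a set limit, near 3 SD of response in nonfluorescent compounds, cut at about 42% in these data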;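 note: stock transfer was 100 nL into about 11 µL; a reference agonist was the positive control; negative values mostly stem from fluorescent compounds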
# Ecoli rRNA inh OD600: recorded beside Ecoli rRNA inh, whose call it bears; OD600 change, %; measured here: OD600 growth;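 optical density of the mix in the first replicate; 0 = DMSO median and -100 = no signal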
# Ecoli rRNA inh RFP: recorded beside Ecoli rRNA inh, whose call it bears; RFP signal change, %; measured here: RFP humanized mutant strains;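 first replicate; 0 = DMSO median and -100 = no signal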
# Active calls of the source: *; i = inactive; x = no result given. These rows are one share of the data; the hit share may differ from the screen's.
item | compound | FGF22 binding | ALR inh | Ecoli rRNA inh OD600 | Ecoli rRNA inh | B2AR ag | UCH37 inh | Ecoli rRNA inh RFP | Ecoli growth | HNF4A DNA FP
1 | CC1(Cc2ccc(Cl)c(Cl)c2)C(=O)Nc2c(Cl)ccc(Cl)c21 (stereo unspecified) | i | x | -26 | -15 | x | x | 6.3 | x | -1.5
2 | Cc1cccc(NC(=O)c2ccc(COc3ccc(Cl)cc3Cl)o2)n1 | x | -3 | x | x | 21 | 5.1 | x | 0.72 | -0.9
3 | CCN(CC)S(=O)(=O)c1cccc(C(=O)NCC2(N3CCOCC3)CCCCC2)c1 | i | x | -1 | 1 | 8 | 1.6 | -0.1 | 0.67 | -2.5
4 | CC(NS(C)(=O)=O)C(c1cccs1)N1CCN(C)CC1 (stereo unspecified) | x | -10 | x | x | 6 | 2.0 | x | 0.66 | -1.5
5 | Cc1ccc(/C=C2\CCC(C3CCCC3)C2=O)cc1 (stereo unspecified) | x | 0 | x | x | 2 | 4.8 | x | x | 2.0
6 | CCN(CC)CCN1C(=O)C(=O)/C(=C(/O)c2ccc(F)cc2)C1c1cccnc1 (stereo unspecified) | i | 1 | 5 | 11 | -7 | 3.2 | -1.1 | 0.7 | 1.4
7 | O=C1Nc2cc(C(=O)NCCCN3CCCC3)ccc2S/C1=C\c1ccccc1 | i | 22 | -32 | -35 | 3 | 8.0 | 1.3 | 0.66 | 4.2
8 | COc1ccc(NC(=O)Nc2ccccc2F)cc1 | i | -4 | -1 | 21 | 9 | 4.4 | 0.9 | 0.7 | 2.3
9 | CC1CCN(CCOc2ccccc2-c2ccccc2)CC1 | x | -4 | x | x | -1 | 1.8 | x | 0.65 | -0.2
10 | CCCCN(C(=O)c1cccs1)c1c(N)n(Cc2ccccc2)c(=O)[nH]c1=O | i | -4 | 7 | 2 | -1 | 1.4 | 9.2 | 0.73 | 1.5
11 | Cc1ccc(S(=O)(=O)N2CCCCC2)cc1NC(=O)CSc1nccn1C | i | -2 | -4 | -11 | -3 | 0.1 | 0.1 | 0.65 | 1.4
12 | CCc1cc2c(C)cc(=O)oc2cc1Oc1ncccc1[N+](=O)[O-] | x | -2 | x | x | x | -0.2 | x | 0.72 | x
13 | O=S(=O)(NCCOc1ccccc1Cl)c1ccc2oc3ccccc3c2c1 | x | 7 | x | x | -3 | 1.6 | x | 0.75 | -1.3
14 | Cc1cc2c(cc1S(=O)(=O)Nc1c(C)cccc1C)n(C)c(=O)c(=O)n2C | i | -36 | 3 | -2 | -1 | -3.4 | -4.2 | 0.67 | 2.7
15 | COc1ccc2cc(CCNC(=O)c3ccc(Br)o3)c(=O)[nH]c2c1 | i | -3 | -42 | -27 | -9 | 2.2 | -3.9 | 0.73 | -2.3
16 | Cc1noc(C(=O)N(C)c2ccccc2)c1Cl | i | -2 | 12 | 11 | 2 | 4.5 | 1.3 | 0.68 | 1.9
17 | Cc1ccccc1/C=N/NC(=O)c1sccc1C | x | -27 | x | x | -3 | x | x | x | 3.1
18 | COc1ccc(-c2nnc(SCc3ccccc3F)o2)cc1OC | x | 0 | x | x | -3 | 1.7 | x | 0.69 | 2.0
19 | COc1cccc(OC)c1C(=O)OCC(=O)NCCNC(=O)COC(=O)c1c(OC)cccc1OC | i | x | 5 | 8 | x | x | -2.5 | x | -1.4
20 | CCOc1ccc(NC(=O)NCCN2C(C)CCCC2C)cc1 (stereo unspecified) | x | -7 | x | x | 7 | 1.5 | x | 0.69 | -0.7
21 | CCCC(=O)N1CCC1(C)C(=O)Nc1ccccc1-c1ccccc1 (stereo unspecified) | i | x | 7 | 5 | x | x | 3.0 | x | 2.2
22 | CCOC(=O)C1(CCOc2ccccc2)CCN(Cc2ccc(O)c(OC)c2)CC1 | i | x | -11 | -6 | 12 | 5.1 | -4.4 | 0.63 | 0.9
23 | COc1ccc(OCc2nn3c(Cn4cnc5ccccc54)nnc3s2)cc1 | x | -7 | x | x | -4 | 4.1 | x | 0.61 | -4.7
24 | COCCN(CCOC)S(=O)(=O)c1ccc(C(=O)Nc2nc(C)c(C(C)=O)s2)cc1 | i | 100* | 7 | 5 | -6 | 9.5 | -9.2 | 0.69 | 0.9
25 | Cc1cc(NC(=O)COC(=O)C2CC(=O)N(c3ccccc3)C2)no1 (stereo unspecified) | i | -2 | 8 | 2 | 12 | -3.1 | -1.1 | 0.7 | -0.6
26 | COc1ccc(NC(=O)C2CCCN(c3nn4c(=O)cc(C)nc4s3)C2)c(OC)c1 (stereo unspecified) | i | -8 | 19 | 2 | 5 | 4.3 | -0.9 | 0.71 | 2.6
27 | CC(C)c1ccccc1-n1c(SCC(=O)N2CCc3ccccc3C2)nc2ccccc2c1=O | i | 1 | 6 | 9 | 7 | 5.3 | 1.7 | 0.78 | -2.3
28 | Cc1cccc2cc(COC(=O)c3cccs3)c(=O)[nH]c12 | x | -2 | x | x | 0 | -2.6 | x | 0.62 | -3.0
29 | CCN=c1scc(-c2ccccc2)n1/N=C/c1ccccn1 | x | 48 | x | x | -21 | x | x | x | 0.5
30 | CCC(c1n[nH]c(=S)n1-c1ccccc1)N(C)C (stereo unspecified) | i | x | 0 | 7 | -1 | 2.5 | -2.4 | 0.67 | 2.4

item | compound | FGF22 binding | ALR inh | Ecoli rRNA inh OD600 | Ecoli rRNA inh | B2AR ag | UCH37 inh | Ecoli rRNA inh RFP | Ecoli growth | HNF4A DNA FP
31 | O=C(CN(Cc1ccco1)C(=O)CCC(=O)Nc1ccccn1)NCc1ccccc1 | i | -3 | 1 | -1 | -6 | 2.4 | 0.5 | 0.68 | 1.1
32 | COCc1cc(=O)[nH]c2cc(NC(=O)C(C)(C)CCl)c(C)cc12 | x | -1 | x | x | 1 | -20 | x | 0.74 | -1.1
33 | Cc1cc(NC(=O)c2cccnc2)ccc1Br | i | 69 | -3 | 4 | -2 | 2.1 | -2.5 | 0.65 | 0.7
34 | CS(=O)(=O)N1CCCC(C(=O)Nc2c(F)cccc2F)C1 (stereo unspecified) | i | -11 | 2 | -3 | 4 | -0.6 | -2.4 | 0.65 | 1.2
35 | Cn1c(=O)n(Cc2ccc(Cl)cc2)c2ccccc21 | i | -3 | -3 | -13 | -16 | 1.0 | -2.8 | 0.68 | 1.2
36 | CC(C)Nc1nc(NC(C)C)nc(SCC(N)=O)n1 | i | 1 | 3 | 13 | 7 | 2.8 | 2.3 | 0.68 | 2.8
37 | O=C(COC(=O)CNC(=O)c1ccccc1F)Nc1nnc(-c2ccccc2)o1 | i | x | 1 | 9 | -3 | 0.0 | -2.3 | 0.7 | -1.5
38 | O=C(O)CCCC(=O)N1N=C(c2ccccc2)CC1c1ccc2c(c1)OCO2 (stereo unspecified) | i | x | -3 | -5 | 7 | 4.7 | -2.8 | 0.64 | -1.9
39 | Cc1cnc(C(=O)OCC(=O)Nc2ccc(C)c(S(=O)(=O)N3CCCCC3)c2)cn1 | x | -1 | 0 | 1 | -5 | 4.9 | 0.5 | 0.7 | 0.8
40 | O=C(NCc1ccccn1)c1ccc2ccccc2n1 | i | 7 | 8 | 1 | -8 | 4.2 | 0.4 | 0.77 | 4.4
41 | O=C(CCNc1ccc(F)cc1)c1ccco1 | x | 27 | x | x | 0 | -4.3 | x | 0.73 | -1.5
42 | O=S(=O)(NCCO)c1ccc2c(c1)Cc1cc(S(=O)(=O)NCCO)ccc1-2 | i | -21 | 14 | 25 | 1 | 2.1 | -0.7 | 0.65 | 2.4
43 | COc1cc(C(=O)NNC2=NC(C)(C)Cc3cc(C)c(C)cc32)cc(OC)c1OC | i | 1 | 1 | -2 | 6 | 6.6 | -3.2 | 0.74 | 1.6
44 | COc1ccc(/C=C/C(=O)c2ccccc2O)cc1CN1CCOCC1 | x | x | x | x | 12 | 2.2 | x | 0.8 | -2.5
45 | Cc1ccc(NNC(=O)c2ccno2)cc1Cl | i | 99* | x | x | -5 | 6.4 | x | 0.54 | -0.1
46 | CCOC(=O)C(Cc1ccccc1)C(=O)Nc1ccc(N(CC)CC)cc1 (stereo unspecified) | x | 99* | x | x | 1 | 2.4 | x | 0.68 | 7.7
47 | NC(=O)CCN1CCN(Cc2nc(C(c3ccccc3)c3ccccc3)no2)CC1 | x | 0 | -2 | 14 | 3 | 1.2 | 1.4 | 0.65 | -1.3
48 | COc1ccccc1/C=C1/C(=O)N(c2cc(C)cc(C)c2)C(c2cccc([N+](=O)[O-])c2)S1(=O)=O (stereo unspecified) | x | 0 | x | x | 27 | -1.1 | x | 0.66 | 3.2
49 | COCc1[nH]nc2c1C(C1C=CCCC1)C(C#N)=C(N)O2 (stereo unspecified) | x | 9 | x | x | 4 | 0.5 | x | 0.68 | -1.0
50 | Nc1cc(=O)[nH]c(SCc2ccccc2Cl)n1 | i | -7 | 4 | 3 | 3 | 2.8 | 1.4 | 0.66 | -0.6
51 | Cc1ccc(C(C)C)cc1S(=O)(=O)NC1CC(C)(C)NC(C)(C)C1 | i | 5 | -4 | 2 | 6 | x | 3.1 | x | -0.3
52 | COc1cccc(CNC(=O)c2cccc(S(=O)(=O)N3CCN(Cc4ccccc4)CC3)c2)c1 | i | x | 17 | 6 | -2 | 0.1 | 3.2 | 0.67 | 1.1
53 | CS(=O)(=O)N1CCc2ccccc2C1 | x | -13 | x | x | -7 | -2.4 | x | 0.73 | 9.1
54 | CCC(C)(C)n1nnnc1C(CC(C)C)N1CCC(C(N)=O)CC1 (stereo unspecified) | x | x | x | x | 7 | 3.9 | x | 0.75 | 2.4
55 | FC(F)(F)c1nc(-c2ccncc2)ncc1-c1nnnn1-c1ccccc1 | x | -4 | x | x | -1 | 1.7 | x | 0.67 | -0.2
56 | COc1ccc(NC(=O)CN(C)C(=O)c2cc(S(=O)(=O)N3CCCCCC3)ccc2OC)cc1 | i | -6 | -1 | -5 | -4 | 1.0 | -1.0 | 0.63 | -1.1
57 | CSc1ccccc1C(=O)C1CCCN(C(=O)c2cncs2)C1 (stereo unspecified) | i | -4 | 5 | 6 | -1 | 2.8 | -0.8 | 0.67 | 2.0

# Values in list order from the entries so far:
# Compounds 45 to 54 in B2AR ag: -5, 1, 3, 27, 4, 3, 6, -2, -7, 7

# Filtered by structure, those above containing an NH in an aromatic ring.
item | compound | FGF22 binding | ALR inh | Ecoli rRNA inh OD600 | Ecoli rRNA inh | B2AR ag | UCH37 inh | Ecoli rRNA inh RFP | Ecoli growth | HNF4A DNA FP
10 | CCCCN(C(=O)c1cccs1)c1c(N)n(Cc2ccccc2)c(=O)[nH]c1=O | i | -4 | 7 | 2 | -1 | 1.4 | 9.2 | 0.73 | 1.5
15 | COc1ccc2cc(CCNC(=O)c3ccc(Br)o3)c(=O)[nH]c2c1 | i | -3 | -42 | -27 | -9 | 2.2 | -3.9 | 0.73 | -2.3
28 | Cc1cccc2cc(COC(=O)c3cccs3)c(=O)[nH]c12 | x | -2 | x | x | 0 | -2.6 | x | 0.62 | -3.0
30 | CCC(c1n[nH]c(=S)n1-c1ccccc1)N(C)C (stereo unspecified) | i | x | 0 | 7 | -1 | 2.5 | -2.4 | 0.67 | 2.4
32 | COCc1cc(=O)[nH]c2cc(NC(=O)C(C)(C)CCl)c(C)cc12 | x | -1 | x | x | 1 | -20 | x | 0.74 | -1.1
49 | COCc1[nH]nc2c1C(C1C=CCCC1)C(C#N)=C(N)O2 (stereo unspecified) | x | 9 | x | x | 4 | 0.5 | x | 0.68 | -1.0
50 | Nc1cc(=O)[nH]c(SCc2ccccc2Cl)n1 | i | -7 | 4 | 3 | 3 | 2.8 | 1.4 | 0.66 | -0.6
